Source: PubChem (several laboratories)
LANA-H2A inh = blockers of LANA interaction with H2A/H2B – biochemical, FP readout, HTS, primary screen; Protein LANA1 (Human herpesvirus 8 type P (isolate GK18)), Q9QR71; cell-free LANA-H2A/H2B peptide, fluorescence polarization; inhibition, % (concentration not given with the values); 0.6% of 320,000 active; AID 2629, 2010; in the data active = inhibition mostly above about 10%, no sharp cut-off; inactive = mostly below about 6.7%;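 note: stock transfer was 7.5 nL into about 10 µL; 0% = median of vehicle wells and 100% = median of positive control wells; one replicate is shown; the record names a cut of 25% in any replicate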
Target sequence (Q9QR71 whole entry, looked up): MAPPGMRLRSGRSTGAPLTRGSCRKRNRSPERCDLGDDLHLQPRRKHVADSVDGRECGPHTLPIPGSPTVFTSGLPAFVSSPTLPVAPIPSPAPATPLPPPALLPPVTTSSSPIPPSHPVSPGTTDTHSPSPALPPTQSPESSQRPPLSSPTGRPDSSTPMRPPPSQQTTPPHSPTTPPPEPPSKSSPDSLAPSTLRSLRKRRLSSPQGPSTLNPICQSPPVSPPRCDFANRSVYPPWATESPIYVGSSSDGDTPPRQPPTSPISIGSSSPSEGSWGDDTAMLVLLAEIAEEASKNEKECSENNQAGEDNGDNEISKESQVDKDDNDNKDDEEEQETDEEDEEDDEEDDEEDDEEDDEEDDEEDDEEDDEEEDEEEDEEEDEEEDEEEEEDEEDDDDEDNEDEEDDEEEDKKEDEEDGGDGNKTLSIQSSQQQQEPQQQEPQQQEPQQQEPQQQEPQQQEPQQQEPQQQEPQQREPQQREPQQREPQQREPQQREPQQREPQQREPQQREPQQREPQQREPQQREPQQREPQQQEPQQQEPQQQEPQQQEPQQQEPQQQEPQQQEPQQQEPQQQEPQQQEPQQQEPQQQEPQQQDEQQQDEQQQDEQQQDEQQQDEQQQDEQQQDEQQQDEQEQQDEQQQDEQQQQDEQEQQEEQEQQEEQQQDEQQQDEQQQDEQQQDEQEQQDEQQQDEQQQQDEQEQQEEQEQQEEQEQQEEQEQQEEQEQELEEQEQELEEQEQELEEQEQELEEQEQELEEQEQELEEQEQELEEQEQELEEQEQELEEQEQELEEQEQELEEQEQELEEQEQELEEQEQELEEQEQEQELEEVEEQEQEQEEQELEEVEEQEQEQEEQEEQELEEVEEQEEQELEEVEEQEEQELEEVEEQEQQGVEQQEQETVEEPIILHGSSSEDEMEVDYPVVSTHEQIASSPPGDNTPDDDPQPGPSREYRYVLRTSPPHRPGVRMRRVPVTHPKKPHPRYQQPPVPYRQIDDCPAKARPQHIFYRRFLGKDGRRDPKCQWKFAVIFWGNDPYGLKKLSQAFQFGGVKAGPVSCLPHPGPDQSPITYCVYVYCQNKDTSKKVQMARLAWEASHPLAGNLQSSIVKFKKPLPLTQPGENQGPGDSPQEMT
T cruzi inh = inhibitors of intracellular T. cruzi growth, primary screen, luminescence, NIH3T3 host cells | T. cruzi beta-gal in NIH3T3, 90 h | inhibition, % (test concentration not listed) | 1.4% of 300,000 active;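 active = mean inhibition across valid replicates above about 55%, limit read from the data; inconclusive = mean below that limit but half or more replicates reach it; inactive = mean below it, under half of replicates reach it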;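 note: signal also drops with host cell toxicity which is not excluded here; 0% = plate median of DMSO wells and 100% = zero luminescence signal; higher percent means less beta-gal luminescence so fewer parasites; stock transfer was 50 nL into about 50 µL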
Beta cell apopt = inhibitors of cytokine-induced beta cell apoptosis, primary screen, luminescence | AID 435005, 2010 | protection from apoptosis, % (test concentration not listed) | 0.8% of 300,000 active | INS-1E cytokine-induced death, ATP luminescence, 48 h; percent of positive-control rescue, neutral wells zero;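 active = all replicates at 75% or more, or half of them and the mean; inconclusive = half reach 75% but not the mean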;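 note: 0% = cytokine-treated negative control wells and 100% = positive control rescue; higher means more ATP so stronger rescue from cytokine killing; wells of about 40 µL received 100 nL stock; the first replicate is given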
Calb FLC = C. albicans growth inhibition with fluconazole, primary screen, CaCi-2 strain, Alamar Blue fluorescence. 0.57% of 300,000 active. C. albicans CaCi-2 (fluconazole-resistant clinical isolate) + fluconazole, 48 h. growth inhibition, % (concentration not given with the values);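 active = most replicates above 75%; inconclusive = exactly half above 75%; inactive = most below 75%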;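 note: all wells also contain fluconazole at 8 µg/ml as a sub-toxic cotreatment; 0% = median of DMSO wells and 100% = median of geldanamycin control wells; wells of about 8 µL received 7.5 nL stock; the first replicate is given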
RanGTP-Imp inh = inhibitors of RanGTP-importin-beta interaction, primary screen, biochemical, FRET, CFP-Ran, YFP-importin-beta, homogeneous; Ran GTPase (GTP-bound) - importin-beta complex; cell-free CFP-Ran/YFP-importin-beta FRET ratio; inhibition, % (test concentration not listed); 1.1% of 300,000 active; AID 2216, 2009;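 active = most replicates above 15%; inconclusive = exactly half above 15%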;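 note: 0% = DMSO wells and 100% = Ran loaded with GDP instead of GTP; wells of about 40 µL received 100 nL stock; the first replicate is given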
UCH37 inh = inhibitors of human UCH37 deubiquitinase, primary screen, biochemical, Ub-AMC cleavage, fluorescence. Ubiquitin carboxyl-terminal hydrolase isozyme L5 (Homo sapiens), Q9Y5K5. purified proteasome/UCH37. inhibition, % (no concentration beside the values). 0.33% of 330,000 active;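 active = mean of two replicates above 20%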;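 note: 0% = compound-free wells with enzyme and 100% = wells lacking proteasome; stock transfer was 100 nL into about 20 µL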
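Material: Human UCH37 enzyme supplied as purified proteasome complex | Schedule: 30 min preincubation with enzyme, 25 min cleavage at room temperature | Detection: AMC fluorescence 355/460 nm | Measure: % inhibition of Ub-AMC cleavage fluorescence | Controls: Wells without proteasome as full block, compound-free enzyme plus substrate as uninhibited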
Bfl-1 A1 inh = caspase 3/7 activation in MEF A1-2A-BIM cells, primary screen, A1 inhibitor project, cell-based, luminescence, HTS | 0.066% of 330,000 active | AID 2462, 2010 | caspase activation, % (no concentration beside the values) | Caspase-Glo 3/7 luminescence, 3 h; percent of clofoctol response, vehicle zero;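 active = over half of replicate activation scores above 10%, or exactly half above 10 with the replicate mean above 10; inconclusive = replicate mean below 10 yet half the replicates above 10; inactive = over half of replicates below 10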;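 note: wells of about 30 µL received 50 nL stock; many hits fall short of the cut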
Beta2AR agonist = beta2AR agonists driving receptor internalization, primary screen, cell-based, FAP fluorogen, flow cytometry; Beta-2 adrenergic receptor (Homo sapiens), P07550; Am2.2-beta2AR cells; reference of the scale not given here; response, % (concentration not given with the values); 0.43% of 340,000 active;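 active = response above a set limit, near 3 SD of response in nonfluorescent compounds, cut at about 42% in these data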;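 note: stock transfer was 100 nL into about 11 µL; a reference agonist was the positive control; negative values mostly stem from fluorescent compounds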
Numbers without * were called inactive; i = inactive; ? = inconclusive; . = no result given.

Second line of a record – LANA-H2A inh	T cruzi inh	Beta cell apopt	Calb FLC	RanGTP-Imp inh	UCH37 inh	Bfl-1 A1 inh	Beta2AR agonist
1. c1ccc(-c2ccc(-c3ccccn3)s2)nc1
→ -1.2	-2	6	1	18*	i	-8.4	-11
2. O=C(COC(=O)c1cc(=O)[nH]c(=O)[nH]1)NCc1ccccc1
→ -0.6	-17	-3	-2	-0.4	0.9	0.1	5
3. O=C(Nc1ccccc1F)c1ccc(CN2CCN(c3ccccc3)CC2)cc1
→ 4.0	9	-6	-14	-0.4	1.6	-1.2	4
4. Cc1ccc(-n2c(-c3c(-c4ccccc4)noc3C)n[nH]c2=S)cc1
→ 1.1	5	-5	8	3.1	-0.4	.	6
5. O=C(Nc1ccncc1)c1ccc2ncsc2c1
→ -4.1	0	11	2	6.2	0.3	-0.5	-2
6. CN(CC(=O)Nc1ccc(N2CCOCC2)cc1)CC(=O)Nc1ccc(N2CCOCC2)cc1
→ 2.4	-4	0	-1	?	4.1	-0.1	3
7. O=S(NC1CCCCC1)C12CC3CC(CC(C3)C1)C2 (stereo not given)
→ 1.5	21	-2	?	-2.8	5.0	0.7	-6
8. O=C(CSc1nc2ccccc2n1CC(=O)N1CCCC1)NCc1ccc2c(c1)OCO2
→ -1.5	17	3	10	2.4	2.7	0.6	-2
9. COc1ccc(NS(=O)(=O)c2ccc3c(c2)CCN3C(=O)CCC(=O)O)cc1OC
→ -0.4	-6	-3	-8	-4.5	1.1	1.0	13
10. O=C1c2cccnc2C(=O)N1Cc1ccc(S(=O)(=O)N2CCN(c3ccc(Cl)cc3)CC2)cc1
→ -3.6	-11	2	8	0.6	2.9	1.1	31
11. C=CCn1cnc2c(nnn2-c2ccc(C)c(C)c2)c1=O
→ -2.8	3	2	-3	-4.4	5.7	-0.2	-3
12. Cc1ccc(SCCNC(=O)c2ccccc2C)cc1
→ 3.1	5	9	-1	4.8	1.7	0.0	8
13. O=c1c(Br)c(NCc2ccccc2)cnn1-c1ccc(F)cc1
→ -3.6	7	-2	6	-2.5	5.4	-0.4	-4
14. CCOC(=O)CCC(=O)N1CCOCCOCCN(C(=O)CCC(=O)OCC)CCOCCOCC1
→ -2.1	-8	-3	-11	-0.6	1.7	0.3	-15
15. CC1CCCCN1S(=O)(=O)c1cnc(Cl)c(Br)c1 (stereo not given)
→ 1.2	-17	-16	6	?	3.4	0.6	5
16. CC(NC(=O)c1ccc([N+](=O)[O-])o1)C1CC2CCC1C2 (stereo not given)
→ 1.5	.	-26	.	.	7.1	-0.1	-4
17. CCOC(=O)/C=C1\CN(CCC(C)C)S(=O)(=O)c2ccccc21
→ 2.2	1	-3	15	0.4	1.0	1.7	-2
18. O=C(N/N=C/c1ccc(OC(F)F)cc1)C1=COCCO1
→ 1.1	-1	-4	-26	-5.4	.	-0.9	8
19. CCOC(=O)/C=C/[C@H]1CC2(CCO1)SCCCS2
→ -7.2	.	-9	.	.	1.9	-0.5	1
20. CCOC(=O)c1cc(=O)c2c([N+](=O)[O-])ccc(OC)c2o1
→ -1.0	-15	5	21	-0.8	0.7	0.3	11
21. O=C(Cc1ccccc1)Nc1ccc(S(=O)(=O)N2CCOCC2)cc1
→ 0.5	-3	4	3	2.5	3.2	0.3	4
22. COc1cc(/C=C/c2noc(-c3ccccc3O)n2)cc(OC)c1OC
→ -6.7	-14	9	-2	-0.7	-227	0.2	-8
23. CCCc1cc(=O)[nH]c(SCC(=O)c2cc(C)n(CCOC)c2C)n1
→ -2.2	-1	-4	-5	2.5	1.2	-0.1	4
24. COc1ccc(CCN(Cc2cccs2)S(=O)(=O)c2ccc(S(=O)(=O)N(C)C3CCCCC3)cc2)cc1OC
→ 3.5	61*	.	-10	1.0	3.2	0.5	-4
25. O=C(Nc1ccc(Cl)cc1)OCc1cncs1
→ -0.7	5	3	-7	-4.3	-0.1	0.3	0
26. NC(=O)C1=C[C@H](c2ccc3c(c2)OCO3)C[C@H](OCc2ccc(CO)cc2)O1
→ -2.7	-6	-4	-1	3.1	1.3	0.8	-3
27. Cc1cc(C)c2c(c1)/C(=N/Nc1ccc(S(N)(=O)=O)cc1[N+](=O)[O-])CCC2
→ -22	-1	38	-2	-2.7	.	0.4	0
28. Cc1noc(C)c1S(=O)(=O)Nc1ccccc1Cl
→ 7.5	-16	.	-2	-0.3	2.7	-0.9	-10
29. CC(=O)Nc1ccc(NC(=O)c2cc(=O)c3ccc(C)cc3o2)cc1
→ 0.5	-18	-5	10	1.4	-4.3	0.4	-7
30. O=C(NCCCc1ccccc1)c1ccc(CS(=O)Cc2ccccc2Cl)o1 (stereo not given)
→ 1.4	1	-2	3	2.7	0.1	-2.6	-4
31. CCOc1ccc2[nH]c(=O)c(C(c3nnnn3C3CCCCC3)N3CCN(CC)CC3)cc2c1 (stereo not given)
→ 1.8	-4	-27	-5	-0.9	-221	-0.6	-11
32. COC(=O)c1cc2c(ccn2-c2ccc(F)cc2)n1CC(C)C
→ -1.3	-13	-3	-7	-0.8	-14	0.1	1
33. CCOc1ccc(S(=O)(=O)N2CCCC(C(=O)N3CCOCC3)C2)cc1C (stereo not given)
→ -6.6	-6	1	-3	1.7	-0.1	-1.0	-10
34. NCCCCCc1nnc(SCc2ccc(Cl)c(Cl)c2)o1
→ -4.9	2	2	2	-2.7	7.1	0.3	3
35. O=C(Nc1nc2c(s1)CCCC2)c1cccc(S(=O)(=O)N2CCCc3ccccc32)c1
→ 0.1	53	6	28	-1.9	-20	0.5	15
36. Cc1cc2ncc(-c3cccc(Cl)c3)cn2n1
→ 1.3	-5	3	1	-2.8	-5.9	-3.4	-17
37. O=C(O)c1cccc(S(=O)(=O)N2CCN(c3ccccn3)CC2)c1
→ 11	-9	.	-5	2.7	0.9	0.2	-4
38. CN1CCN(C(c2cc3cc4c(cc3[nH]c2=O)OCCO4)c2nnnn2C2CCCC2)CC1 (stereo not given)
→ -1.0	-14	0	20	-4.1	-238	-0.4	.
39. COCCCNC(=O)Cn1cc2c(n1)CCC(C)C2 (stereo not given)
→ -3.1	-7	-4	1	-2.4	5.5	0.1	3
40. CC(=O)Nc1cccc(N2C(=O)CC(N3CCC(C(=O)N4CCCCC4)CC3)C2=O)c1 (stereo not given)
→ 5.4	-34	-5	-4	4.9	0.6	-0.5	3

3 of the compounds above, in transposed form:
#21 O=C(Cc1ccccc1)Nc1ccc(S(=O)(=O)N2CCOCC2)cc1
#13 O=c1c(Br)c(NCc2ccccc2)cnn1-c1ccc(F)cc1
#14 CCOC(=O)CCC(=O)N1CCOCCOCCN(C(=O)CCC(=O)OCC)CCOCCOCC1

Compound | 21 | 13 | 14
LANA-H2A inh | 0.5 | -3.6 | -2.1
T cruzi inh | -3 | 7 | -8
Beta cell apopt | 4 | -2 | -3
Calb FLC | 3 | 6 | -11
RanGTP-Imp inh | 2.5 | -2.5 | -0.6
UCH37 inh | 3.2 | 5.4 | 1.7
Bfl-1 A1 inh | 0.3 | -0.4 | 0.3
Beta2AR agonist | 4 | -4 | -15

Rewritten with one line to a screen: 3 of the compounds above
36	Cc1cc2ncc(-c3cccc(Cl)c3)cn2n1
37	O=C(O)c1cccc(S(=O)(=O)N2CCN(c3ccccn3)CC2)c1
38	CN1CCN(C(c2cc3cc4c(cc3[nH]c2=O)OCCO4)c2nnnn2C2CCCC2)CC1 (stereo not given)
assay / compound	36	37	38
LANA-H2A inh	1.3	11	-1.0
T cruzi inh	-5	-9	-14
Beta cell apopt	3	.	0
Calb FLC	1	-5	20
RanGTP-Imp inh	-2.8	2.7	-4.1
UCH37 inh	-5.9	0.9	-238
Bfl-1 A1 inh	-3.4	0.2	-0.4
Beta2AR agonist	-17	-4	.

Next section:
Second line of a record – LANA-H2A inh	T cruzi inh	Beta cell apopt	Calb FLC	RanGTP-Imp inh	UCH37 inh	Bfl-1 A1 inh	Beta2AR agonist
41. COc1ccc2ccccc2c1/C=N/Nc1cccc(C(=O)O)c1
→ -0.3	-8	.	17	1.3	.	-1.2	-10
42. CCOc1ccc(NC(=O)CC2CC(C)(C)OC2=O)cc1 (stereo not given)
→ -3.7	-8	-4	0	2.2	-2.9	0.8	5
43. CC(NC(=O)Nn1cnnc1)(C(F)(F)F)C(F)(F)F
→ -1.7	-11	-15	13	4.1	2.1	0.4	7
44. O=C(c1ccccc1)N1CCN(c2ncnc3c2cnn3-c2ccccc2)CC1
→ -0.8	10	1	7	-1.6	2.7	1.4	3
45. C=CCNC(=S)N/N=C(\C)c1ccc(OC)cc1
→ 0.3	32	1	-7	0.0	.	1.7	2
46. O=c1nc2s/c(=C\c3ccc(-c4ccccc4[N+](=O)[O-])o3)c(=O)n2nc1-c1ccccc1
→ .	3	.	19	3.3	.	.	0
47. N#CC(c1ccccc1)N(CCCCl)C(=O)c1ccccc1 (stereo not given)
→ -1.3	-13	-3	-6	1.3	21*	0.1	-5
48. COc1ccc(CCCC(=O)NC2CCCCC2C)c(C)c1 (stereo not given)
→ 1.8	-8	5	-5	-1.8	1.9	0.0	-3
49. COc1ccc(-c2sc3cc4c(cc3c2C#CC2(N)CCCCC2)OCO4)cc1
→ 4.6	.	3	.	.	.	1.1	25
50. C=CCNc1nc(N2CCCCC2)c(C#N)c2c1CN(Cc1ccccc1)CC2
→ 5.2	52	60	-14	52*	-8.1	-1.6	21
51. COc1ccc(C2Nc3ccccc3C(=O)N2NS(C)(=O)=O)cc1 (stereo not given)
→ 2.3	-12	4	-8	-2.3	-460	0.3	1
52. COc1cc(/C=C/C(=O)OCC(=O)NC2CC2)cc(OC)c1OC
→ -1.3	.	-8	.	.	-14	0.3	-2
53. CCCOC(=O)CSC1=C(C#N)C(c2ccccc2OC)C(C#N)C(=O)N1 (stereo not given)
→ -1.9	-5	-9	2	26*	9.8	-0.2	8
54. CCCCn1c(N)c(N(CC)C(=O)CCNC(=O)c2ccc(Cl)cc2)c(=O)[nH]c1=O
→ -3.6	.	-4	.	.	-1.3	-1.5	-1
